# MLL AF4-AF9 inh – blocks AF4 peptide binding to human AF9 | P42568 | AlphaScreen, biotin-AF4 peptide binding to FLAG-AF9 | inhibition, % at 10 µM | hit rate 0.47% among 350,000 | AID 651704;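 active means every replicate reaching a set inhibition limit, whatever the replicate mean, cut at about 25% in these data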;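 further: 0% = plate neutral control median and 100% = total signal loss; the record names both 10 and 1 µM as test concentration; the first replicate is given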
# Target sequence (P42568 whole entry, looked up): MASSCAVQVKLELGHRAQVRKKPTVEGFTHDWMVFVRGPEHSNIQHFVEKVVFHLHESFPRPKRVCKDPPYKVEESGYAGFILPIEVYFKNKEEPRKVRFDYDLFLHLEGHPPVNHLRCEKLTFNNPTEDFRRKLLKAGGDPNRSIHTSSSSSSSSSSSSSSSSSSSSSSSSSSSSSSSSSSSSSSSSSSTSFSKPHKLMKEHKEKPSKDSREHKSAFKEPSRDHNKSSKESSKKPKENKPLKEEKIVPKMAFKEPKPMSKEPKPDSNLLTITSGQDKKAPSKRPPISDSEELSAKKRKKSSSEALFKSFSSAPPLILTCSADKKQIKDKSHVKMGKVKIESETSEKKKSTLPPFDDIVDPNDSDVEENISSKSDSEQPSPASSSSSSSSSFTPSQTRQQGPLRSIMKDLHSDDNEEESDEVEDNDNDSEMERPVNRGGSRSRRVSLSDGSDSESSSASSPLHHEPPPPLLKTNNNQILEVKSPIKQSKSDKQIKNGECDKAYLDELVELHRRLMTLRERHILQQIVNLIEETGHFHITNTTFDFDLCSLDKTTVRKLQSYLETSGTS
# Ecoli rRNA inh – selective bacterial rRNA inhibition in E. coli; GFP signal change (wild-type ribosome), % (test concentration not listed); E. coli WT GFP vs humanized-ribosome RFP mutants, fluorescence, 24 h; active compounds read low; DMSO median 0, no signal -100; hit rate 1.6% among 350,000;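 active means significant combined selectivity score with lowered wild-type GFP, culture density cut under 30%, mutant RFP and density less affected; inactive means any of these conditions unmet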; further: one replicate is shown; some compounds called inactive have numbers as strong as hits
# FGF22 binding – FGF22 (human) thermal shift binding. Q9HCT0. recombinant FGF22 thermal shift, SYPRO orange fluorescence; percent of sucrose octasulfate shift, DMSO zero. calls only at 9.99 µM. hit rate 1.5% among 340,000. AID 651658;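 active means melting point raised past a set limit in the mean and every replicate; three in four hits are not shown here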
# Target sequence (Q9HCT0 whole entry, looked up): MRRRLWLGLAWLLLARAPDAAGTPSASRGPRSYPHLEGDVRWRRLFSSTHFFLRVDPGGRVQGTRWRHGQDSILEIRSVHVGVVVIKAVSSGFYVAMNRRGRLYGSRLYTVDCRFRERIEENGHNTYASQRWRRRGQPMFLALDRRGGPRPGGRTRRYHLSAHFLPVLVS
# Ecoli rRNA inh OD600 – second read-out of Ecoli rRNA inh, no call of its own (marks repeat the call); OD600 change, %; measured here: OD600 growth;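 optical density of the mix in the first replicate; 0 = DMSO median and -100 = no signal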
# Ecoli rRNA inh RFP – further read-out of Ecoli rRNA inh, marked with its call; RFP signal change, %; measured here: RFP humanized mutant strains;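 first replicate; 0 = DMSO median and -100 = no signal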
# Active calls of the source: *; i = inactive; & = joins results of further samples. This is a subset. The share of hits here may be higher or lower than overall.
cpd	SMILES	MLL AF4-AF9 inh	Ecoli rRNA inh	Ecoli rRNA inh OD600
1	C[C@@H]1CN([C@H](C)CO)C(=O)c2c(c3ccccc3n2C)-c2ccccc2CO[C@H]1CN(C)C(=O)[C@@H]1CCCN1C	0.5	1	-1
2	COc1ccccc1-c1ccc([C@@H]2[C@@H](CO)N(CC3CC3)C23CN(S(C)(=O)=O)C3)cc1	2.1	-1	-6
3	CC(C)(C)n1nnnc1C(c1ccccc1)N1CCN(c2ccc(F)cc2)CC1 (centres undefined)	5.6	20	21
4	COC(=O)[C@]12CCCCC=C1N(Cc1ccco1)C(=O)[C@H](CC(=O)NCC13CC4CC(CC(C4)C1)C3)C2	4.3	-4	-7
5	O=C(C[C@@H]1C[C@H]2c3cc(NC(=O)c4ccc5c(c4)OCO5)ccc3O[C@H]2[C@H](CO)O1)NCc1cc(F)ccc1F	2.3	-11	-20
6	COc1ccc(S(=O)(=O)Nc2ccc3c(c2)CC(=O)N([C@@H](C)CO)C[C@@H](C)[C@H](CN(C)Cc2ccc(-c4ccccc4)cc2)O3)cc1	-0.6	-3	-1
7	CNC[C@@H]1Oc2ccc(NC(=O)c3ccncc3)cc2C(=O)N([C@@H](C)CO)C[C@@H]1C	-4.3	0	7
8	CO[C@H]1CN(C)C(=O)c2cc(NC(=O)NC3CCCCC3)ccc2OC[C@@H](C)NC[C@@H]1C	-1.5	3	19
9	CC(C)CC#Cc1cnc2c(c1)C(=O)N([C@@H](C)CO)C[C@H](C)[C@@H](CN(C)C(=O)Cc1cccnc1)O2	-4.6	3	1
10	COc1cc(/C=C2\CCC(C)C3=C(c4cc(OC)c(OC)c(OC)c4)C(C#N)=C(N)OC32)cc(OC)c1OC (centres undefined)	-4.5	24	5

cpd	Ecoli rRNA inh RFP	FGF22 binding
1	0.2	i
2	1.8	i
3	-0.3	i
4	18	i
5	4.0	i
6	4.2	i
7	0.3	i
8	0.3	i
9	-0.2	i
10	24	i

cpd	SMILES	MLL AF4-AF9 inh	Ecoli rRNA inh	Ecoli rRNA inh OD600
11	Cc1cccc(S(=O)(=O)N2CC[C@H]3[C@@H](CO)N(C)c4ccc(-c5ccccc5F)cc4[C@H]32)c1	-0.9	-5	-2
12	COc1ccc(NC(=O)Nc2ccc3c(c2)[C@H]2C[C@H](CC(=O)NC4CCCC4)O[C@H](CO)[C@H]2O3)cc1	4.4	-4	-7
13	COc1ccc(C=C2CCC3C(CCCC34OCCO4)C2=O)cc1 (centres undefined)	11	7	-39
14	COc1ccccc1C=CC(=O)C=Cc1ccccc1OC	6.1	-3	0
15	CCOC(=O)C1CCN(C(=O)c2ccc(NS(=O)(=O)c3ccc4[nH]c(=O)[nH]c4c3)cc2)CC1	0.7	11	15
16	C[C@@H]1CN([C@@H](C)CO)C(=O)c2cc(Br)cnc2O[C@H]1CN(C)S(=O)(=O)c1ccccc1	3.3&-9.9&-8.5	-2&3	-6&9
17	N#C[C@H]1[C@@H](c2ccc(C#Cc3ccc(F)cc3)cc2)[C@H](CO)N1C(=O)C1CC1	-1.8	0	-4
18	COc1cccc(C#Cc2ccc3c(c2)O[C@@H](CN(C)C(=O)CN2CCOCC2)[C@@H](C)CN([C@H](C)CO)S3(=O)=O)c1	3.6	1	-7
19	CCCN(C)C[C@@H]1Oc2cc(C#Cc3cccnc3)ccc2S(=O)(=O)N([C@@H](C)CO)C[C@H]1C	2.3	-1	-11
20	C[C@H]1CN([C@@H](C)CO)C(=O)c2cc(N(C)C)ccc2O[C@H]1CN(C)Cc1ccncc1	-2.6	1	14

cpd	Ecoli rRNA inh RFP	FGF22 binding
11	7.2	i
12	5.8	i
13	-5.8	i
14	-0.8	i
15	0.6	i
16	1.1&-1.2	i
17	-0.9	i
18	11	i
19	1.1	i
20	1.8	i

cpd	SMILES	MLL AF4-AF9 inh	Ecoli rRNA inh	Ecoli rRNA inh OD600
21	O=C(c1ccccn1)N1C[C@H]2[C@@H](c3ccccc31)[C@@H](CO)N2C(=O)C1CCOCC1	-10	4	1
22	CC(=O)c1ccc(OC2(C)CCN(Cc3ccc4ccccc4c3)C2)cc1 (centres undefined)	2.2	-3	-9
23	C[C@H](CO)N1C[C@H](C)[C@H](CN(C)Cc2ccc(C(F)(F)F)cc2)Oc2ccc(N(C)C)cc2CC1=O	16	-6	-5
24	C[C@@H]1CCCCO[C@H](CN(C)Cc2ccc(C(F)(F)F)cc2)[C@@H](C)CN([C@@H](C)CO)C(=O)c2cc(NC(=O)NC3CCCCC3)ccc2O1	-4.9	0	-9
25	CN1C(=O)c2cc(NC(=O)c3cnccn3)ccc2OC[C@@H]2O[C@H](CC(=O)N[C@@H]3CCN(Cc4ccccc4)C3)CC[C@H]21	7.2	-1	7
26	Cc1ccc(S(=O)(=O)Nc2cccc3c2O[C@H](CN(C)Cc2ccccc2)[C@H](C)CN([C@H](C)CO)C3=O)cc1	-2.4	-3	-9
27	C[C@@H](NC(=O)C[C@@H]1C[C@@H]2c3cc(NS(C)(=O)=O)ccc3O[C@@H]2[C@H](CO)O1)c1ccccc1	-1.8	4	5
28	COc1ccc(NC(=O)N(C)C[C@@H]2OCCCC[C@@H](C)Oc3ccc(NC(=O)C4CCCCC4)cc3C(=O)N([C@@H](C)CO)C[C@@H]2C)cc1	0.1	3	8
29	COc1ccc(CNC(=O)C[C@@H]2C[C@H]3c4cc(NS(=O)(=O)c5ccc(F)cc5)ccc4O[C@H]3[C@@H](CO)O2)cc1	-3.5	-5	-21
30	C[C@@H]1CN([C@H](C)CO)C(=O)c2cccc(NS(C)(=O)=O)c2O[C@@H]1CN(C)Cc1ccc(C(=O)Nc2ccccc2N)cc1	-1.9	0	2

cpd	Ecoli rRNA inh RFP	FGF22 binding
21	-2.3	i
22	5.5	i
23	-1.0	i
24	8.4	i
25	-3.0	i
26	-0.8	i
27	-2.3	i
28	1.6	i
29	-1.3	i
30	-1.7	i

cpd	SMILES	MLL AF4-AF9 inh	Ecoli rRNA inh	Ecoli rRNA inh OD600
31	CC(=O)N(C)C[C@H]1Oc2cc(C#C[C@@H](C)O)ccc2S(=O)(=O)N([C@@H](C)CO)C[C@@H]1C	-0.4	3	4
32	O=C(c1cccnc1)N1CC[C@H]2[C@H](CO)Nc3ccc(-c4cccc(F)c4)cc3[C@H]21	-5.0	-9	-3
33	CO[C@H]1CN(C)C(=O)c2cc(NS(=O)(=O)c3ccccc3C)ccc2OC[C@@H](C)N(C)C[C@@H]1C	-2.5	-1	-4
34	C[C@@H]1CN([C@@H](C)CO)C(=O)Cc2cc(NC(=O)Cn3cnnn3)ccc2O[C@@H]1CN(C)C	-4.4	9	18
35	CCCNC(=O)N1C[C@@H](C)[C@@H](OC)CN(C)C(=O)c2ccc(NC(C)=O)cc2OC[C@@H]1C	-1.5	2	-3
36	C[C@H]1CN([C@@H](C)CO)C(=O)c2cccc(NC(=O)c3ccncc3)c2O[C@@H]1CN(C)Cc1ccc(C(=O)Nc2ccccc2N)cc1	14	2	1
37	CCNC(=O)C1CCCN(C(=O)c2ccc(OC)c(OC)c2)CC1 (centres undefined)	-1.8	15	30
38	O=C(C[C@@H]1CC[C@H](NC(=O)Nc2ccc(F)cc2)[C@@H](CO)O1)NCCN1CCCC1	-3.5	-1	3
39	CO[C@H]1CN(C)C(=O)c2ccc(NC(=O)C3CC3)cc2OC[C@H](C)N(CC2CCOCC2)C[C@@H]1C	-0.2	1	2
40	COc1ccc(CN(C)C[C@@H]2OCCCC[C@@H](C)Oc3ccc(NC(=O)CCC(F)(F)F)cc3C(=O)N([C@@H](C)CO)C[C@H]2C)cc1	-1.1	2	5

cpd	Ecoli rRNA inh RFP	FGF22 binding
31	-3.1	i
32	-0.7	i
33	-1.8	i
34	1.6	i
35	-1.8	i
36	2.0	i
37	2.4	i
38	0.1	i
39	0.5	i
40	0.2	i

cpd	SMILES	MLL AF4-AF9 inh	Ecoli rRNA inh	Ecoli rRNA inh OD600
41	O=S(=O)(N[C@@H]1CC[C@@H](CCn2cc(-c3ccccc3F)nn2)O[C@@H]1CO)c1ccc(Cl)cc1	-0.1	-3	-7
42	C[C@H](CO)N1C[C@H](C)[C@@H](CN(C)S(=O)(=O)c2ccc(Cl)cc2)Oc2c(NC(=O)c3nc4ccccc4s3)cccc2C1=O	-0.4	-2	2
43	C[C@@H]1CN([C@H](C)CO)C(=O)c2cccc(NC(=O)c3ccc(-c4nccs4)cc3)c2O[C@@H]1CN(C)S(=O)(=O)c1cn(C)cn1	1.5	1	6
44	CC(=O)N(C)C[C@H]1Oc2ncc(-c3ccc(C#N)cc3)cc2C(=O)N([C@@H](C)CO)C[C@@H]1C	-5.5	8	7
45	COCC(=O)N1[C@@H](CO)[C@H](c2ccc(-c3cccc(OC)c3)cc2)C12CN(C(C)=O)C2	0.9	0	1
46	C/C=C/c1ccc2c(c1)O[C@H](CN(C)C(=O)NC(C)C)[C@@H](C)CN([C@@H](C)CO)S2(=O)=O	0.8	-3	-7
47	Cc1ccc(C(=O)O)cc1NC(=O)CCc1c(C)noc1C	0.4	8	2
48	COc1cc2c(cc1OC)C(c1c(-c3c(Cl)cccc3Cl)noc1C)=NCC2	1.2	-6	-43
49	CC(C)NC(=O)N(C)C[C@@H]1Oc2c(NC(=O)c3ccncc3)cccc2C(=O)N([C@H](C)CO)C[C@H]1C	-3.4	4	9
50	CCN1C(=O)[C@H]2[C@@H](c3ccc(OC)cc3)N[C@]3(CCCN(Cc4cccn4C)C3=O)[C@H]2C1=O	4.7	2	11

cpd	Ecoli rRNA inh RFP	FGF22 binding
41	-1.2	i
42	-2.6	i
43	-0.5	i
44	0.6	i
45	0.6	i
46	-2.8	i
47	2.1	i
48	-12	i
49	-3.5	i
50	-5.2	i

cpd	SMILES	MLL AF4-AF9 inh	Ecoli rRNA inh	Ecoli rRNA inh OD600
51	Cc1noc(C)c1S(=O)(=O)Nc1ccc2c(c1)C(=O)N([C@H](C)CO)C[C@@H](C)[C@@H](CN(C)C(=O)Nc1cccc3ccccc13)OCCCC[C@@H](C)O2	1.3	3	-11
52	C[C@@H]1CN([C@@H](C)CO)C(=O)Cc2cc(NS(=O)(=O)c3cccs3)ccc2O[C@@H]1CN(C)C(=O)Nc1ccc(F)cc1	-0.3	3	6
53	C[C@H]1CN([C@@H](C)CO)C(=O)c2cccc(NC(=O)CCCCCC(=O)Nc3ccccc3N)c2O[C@@H]1CN(C)CC1CC1	-2.0	-2	2
54	C[C@H](CO)N1C[C@H](C)[C@H](CN(C)C(=O)Nc2ccccc2)Oc2ccc(NC(=O)Nc3ccc(C(F)(F)F)cc3)cc2CC1=O	3.2	-3	-18
55	O=C(Nc1ccccc1)Nc1ccc2c(c1)[C@@H]1C[C@@H](CC(=O)N3CCCCC3)O[C@H](CO)[C@@H]1O2	-0.9	5	14
56	CN1CCN(C(=O)C[C@@H]2C=C[C@H](NC(=O)c3ccc4c(c3)OCO4)[C@@H](CO)O2)CC1	-10	2	2
57	Cc1c(P(=S)(c2ccccc2)c2ccccc2)[n+]2ccccc2n1CCc1ccccc1	-4.8	-54	-80
58	C[C@@H](NC(=O)C[C@H]1C=C[C@@H](NS(=O)(=O)c2cccc(F)c2)[C@@H](CO)O1)c1ccccc1	-15	-5	1
59	Cc1noc(C)c1NC(=O)N[C@H]1C=C[C@H](CC(=O)Nc2ccc(-c3ccccc3)cc2)O[C@H]1CO	-0.9	-6	5
60	COCC(=O)N(C)C[C@H]1Oc2ncc(C#CC3(O)CCCC3)cc2C(=O)N([C@H](C)CO)C[C@H]1C	-2.1	4	18

cpd	Ecoli rRNA inh RFP	FGF22 binding
51	3.4	i
52	1.8	i
53	-1.6	i
54	1.0	i
55	-2.5	i
56	1.8	i
57	-22	i
58	-2.6	i
59	2.2	i
60	-3.3	i

# Single records, from the list above:
# C[C@@H]1CN([C@@H](C)CO)C(=O)Cc2cc(NS(=O)(=O)c3cccs3)ccc2O[C@@H]1CN(C)C(=O)Nc1ccc(F)cc1 across the screens: MLL AF4-AF9 inh: -0.3; Ecoli rRNA inh: 3; Ecoli rRNA inh OD600: 6; Ecoli rRNA inh RFP: 1.8; FGF22 binding: i
# C[C@H](CO)N1C[C@H](C)[C@H](CN(C)C(=O)Nc2ccccc2)Oc2ccc(NC(=O)Nc3ccc(C(F)(F)F)cc3)cc2CC1=O across the screens: MLL AF4-AF9 inh: 3.2; Ecoli rRNA inh: -3; Ecoli rRNA inh OD600: -18; Ecoli rRNA inh RFP: 1.0; FGF22 binding: i

# Remaining list, next part.
cpd	SMILES	MLL AF4-AF9 inh	Ecoli rRNA inh	Ecoli rRNA inh OD600
61	C[C@@H]1CCCN1[C@@H]1CS(=O)(=O)N[C@H]1COCc1ccccc1	-0.3	17	4
62	Cc1nc(NC(=O)C(C)(C)C)sc1-c1csc(N)n1	10	5	5
63	O=C1NC[C@H](CCCCN2CCN(CCc3ccccc3)C(=O)C2=O)N(CCc2ccccc2)C1=O	-5.8	20	18
64	Cc1cc(C)c(NC(=O)C2CCN(S(C)(=O)=O)CC2)c(C)c1	-4.4	2	11
65	CO[C@H]1CC[C@H]2CCOc3c(C#N)cccc3C(=O)N(C)C[C@H](c3ccccc3)CC(=O)N(C)C[C@@H]1O2	-1.7	3	14

cpd	Ecoli rRNA inh RFP	FGF22 binding
61	4.1	i
62	6.6	i
63	2.7	i
64	2.2	i
65	-0.4	i

# Screening data from PubChem.
